# MT1-MMP act inh: inhibitors of human MT1-MMP activation. GFP/RFP ratio change, % at 20 µM. HT1080 RFP-PRO-GFP cells, GFP/RFP ratio fluorescence, overnight; percent of plate control window, DMSO zero. actives 0.061% (n = 360,000). AID 651647. P50281;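 active = GFP/RFP ratio change of at least 30% with cell ATP level not reduced by more than half and red fluorescence within 50% of control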; note: strong numbers were not always called active
#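 Material: RFP-PRO-GFP reporter HT1080 cells. Dosing: single-point 20 µM compound, 1% DMSO. Controls: DMSO and RFP-L50D-GFP cell wells. Timing: cells overnight before dosing, compound overnight, 37 °C, 5% CO2. Measure: GFP/RFP fluorescence ratio.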
# PABP FP inh: PABP-poly(A) binding inhibition. P11940. PABP-poly(A) RNA binding, fluorescence polarization. inhibition, % at 35 µM. actives 1% (n = 290,000);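 active = 50% or more with normal probe brightness, or confirmed in later tests; inconclusive = above 50% with abnormal brightness, or retests that disagree; inactive = below 50% or failed in later tests; about a fifth of its hits are not listed in these tables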;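 note: calls also rest on retests at 20 µM and on dose response follow-up; controls were probe without protein and protein plus probe with vehicle; some compounds called inactive have numbers as strong as hits; many hits fall short of the cut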
# Target sequence (P11940 whole entry, looked up): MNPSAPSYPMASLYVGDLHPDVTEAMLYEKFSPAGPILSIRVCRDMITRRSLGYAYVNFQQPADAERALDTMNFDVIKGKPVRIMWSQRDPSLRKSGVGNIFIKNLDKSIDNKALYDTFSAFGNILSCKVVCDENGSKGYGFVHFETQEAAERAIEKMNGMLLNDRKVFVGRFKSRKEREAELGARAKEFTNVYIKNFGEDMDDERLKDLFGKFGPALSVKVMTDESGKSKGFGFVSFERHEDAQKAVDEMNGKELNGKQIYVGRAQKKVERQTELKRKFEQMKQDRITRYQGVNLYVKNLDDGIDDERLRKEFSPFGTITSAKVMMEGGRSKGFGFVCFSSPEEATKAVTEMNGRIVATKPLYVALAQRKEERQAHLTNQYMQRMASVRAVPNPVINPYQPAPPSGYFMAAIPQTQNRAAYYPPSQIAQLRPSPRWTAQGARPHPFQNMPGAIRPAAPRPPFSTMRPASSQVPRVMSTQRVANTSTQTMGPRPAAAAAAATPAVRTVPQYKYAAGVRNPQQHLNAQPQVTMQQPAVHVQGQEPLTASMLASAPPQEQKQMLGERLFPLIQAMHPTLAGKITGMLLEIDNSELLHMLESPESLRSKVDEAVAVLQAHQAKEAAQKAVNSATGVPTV
# Rce1 inhib: inhibitors of yeast Ras-converting enzyme; calls only; Q03530; actives 0.27% (n = 290,000); yeast membranes, quenched prenylated peptide cleavage fluorescence; AID 2563;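 active = fall in fluorescence gain of 50% or more versus controls, with final raw signal at or below 3038400; inconclusive = same 50% fall but final raw signal above 3038400; inactive = fall in fluorescence gain under 50%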;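 note: plate controls were neutral control wells for no effect and wells lacking membranes for full effect; tested at 10 µM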
# Target sequence (Q03530 whole entry, looked up): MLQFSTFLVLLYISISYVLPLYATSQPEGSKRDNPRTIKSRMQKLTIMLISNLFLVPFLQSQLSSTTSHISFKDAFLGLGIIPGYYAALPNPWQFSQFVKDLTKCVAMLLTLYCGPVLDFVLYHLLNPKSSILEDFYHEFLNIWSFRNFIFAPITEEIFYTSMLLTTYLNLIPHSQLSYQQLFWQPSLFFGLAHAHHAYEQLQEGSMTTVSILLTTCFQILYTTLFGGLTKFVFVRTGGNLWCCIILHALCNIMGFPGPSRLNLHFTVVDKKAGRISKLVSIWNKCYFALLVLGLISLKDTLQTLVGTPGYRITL
# CSC inhib: cancer stem cell inhibition; AID 2717; cancer stem cell-like cells viability, luminescence; inhibition, % at 7.5 µM; actives 1.1% (n = 300,000);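 active = mean at 75% or more and at least half the replicates too; inconclusive = mean and replicates disagree; tested in HMLE shEcad cells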;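 note: 0% = median of negative and 100% = median of positive control wells; the first replicate is given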
# UUG fidelity: modulators of start codon recognition fidelity in yeast; S. cerevisiae UUG-firefly luciferase reporter, luminescence/redox ratio; activity score, % at 18.7 µM; actives 0.13% (n = 350,000); AID 602363;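 active = replicate mean at a twofold rise or more, about +100% in these data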;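 note: firefly luciferase made from a UUG start codon reports start codon fidelity; reporter light over untreated wells divided by growth signal over untreated wells; some hits fall short of that in this replicate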
# Env fusion inh: inhibitors of HIV Env-mediated cell fusion. inhibition, % at 12.3 µM. actives 1.1% (n = 360,000). HeLa-JRFL Env/CEM21 cell fusion, luciferase;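 active = mean replicate inhibition score of at least 50 and every replicate individually at or above 50; inconclusive = only one of the two criteria met; inactive = mean below 50 and not all replicates reaching 50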;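 note: 0% = plate neutral controls and 100% = maraviroc near 300 nM; one replicate is shown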
# eIF4H inh: inhibitors of RNA binding by human eIF4H. inhibition, % at 35 µM. Q15056. eIF4H fluorescence polarization binding assay. actives 0.94% (n = 290,000);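 active = 50% or more with normal probe brightness, or confirmed in later tests; inconclusive = above 50% with abnormal brightness, or retests that disagree; inactive = below 50% or failed in later tests; about a fifth of its hits are not listed in these tables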;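 note: calls also rest on retests at 20 µM and on dose response follow-up; 0% = protein and probe with vehicle and 100% = probe without protein; strong numbers were not always called active; many hits fall short of the cut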
# eIF4H inh retest: also measured in eIF4H inh; calls as there; inhibition, %; compound at 20 µM; confirmation average;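 mean of two retest wells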
# PABP FP inh retest: also measured in PABP FP inh; calls as there; inhibition, %; compound at 20 µM; confirmation repeats;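 mean of two retest wells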
# MT1-MMP act inh RFP: further read-out of MT1-MMP act inh, marked with its call; RFP signal change, %; measured here: RFP expression control read;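 0 = vehicle wells; hits needed this value within 50% of zero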
# Numbers without * were called inactive; i = inactive; ? = inconclusive; . = not tested or not shown; & = joins results of further samples.
SMILES,MT1-MMP act inh,MT1-MMP act inh RFP,PABP FP inh,Rce1 inhib,CSC inhib,UUG fidelity,Env fusion inh,eIF4H inh,others
CCC1CCCCN1CCCNC(=O)c1c(O)nc2cc(C)ccn2c1=O (stereo not given),2,0,6,i,10,-11,-14,-2,
COc1cccc(-c2nnc3n2N=C(C(C)(C)C)CS3)c1,-21,-9,1,i,-17,-24,112*,-7,
COC(=O)c1c(C)n(-c2ccc(C)cc2)c2ccc(O)cc12,-8,-4,-1,i,.,-2,-32,7,
O=C(O)COc1ccccc1/C=N/NC(=O)CSc1nc2ccccc2n1Cc1ccc(Cl)cc1,3,-5,16,i,9,-3,15,6,
CCCCn1c(=N)n(CC(O)COc2ccccc2)c2ccccc21 (stereo not given),-2,0,-16,i,4,-8,.,-4,
CN(C(=O)c1ccccc1-c1ccccc1C(=O)O)c1ccccc1,-3,3,6,i,-9,-20,-7,5,
CCN(CC)CCN(C(=O)c1ccc2c(c1)OCCO2)c1nc2cc(C)cc(C)c2s1,1,3,-12,i,8,-3,12,-15,
CC(Oc1ccc(Br)cc1)C(=O)N(C)CC(=O)Nc1ccc(N2CCOCC2)cc1 (stereo not given),-1,4,.,i,-14,3,9,.,
Cc1ccccc1C(=O)NNC(=O)CSc1nc2ccccc2c(=O)[nH]1,2,-1,0,i,-2,.,-2,-2,
O=C(Nc1ccccc1Cl)c1cc(C2CCCN(C(=O)c3cccs3)C2)on1 (stereo not given),2,-2,.,.,.,-16,-16,.,

# Continued, starting with the last 4 of the part before.
SMILES,MT1-MMP act inh,MT1-MMP act inh RFP,PABP FP inh,Rce1 inhib,CSC inhib,UUG fidelity,Env fusion inh,eIF4H inh,others
CCN(CC)CCN(C(=O)c1ccc2c(c1)OCCO2)c1nc2cc(C)cc(C)c2s1,1,3,-12,i,8,-3,12,-15,
CC(Oc1ccc(Br)cc1)C(=O)N(C)CC(=O)Nc1ccc(N2CCOCC2)cc1 (stereo not given),-1,4,.,i,-14,3,9,.,
Cc1ccccc1C(=O)NNC(=O)CSc1nc2ccccc2c(=O)[nH]1,2,-1,0,i,-2,.,-2,-2,
O=C(Nc1ccccc1Cl)c1cc(C2CCCN(C(=O)c3cccs3)C2)on1 (stereo not given),2,-2,.,.,.,-16,-16,.,
COc1c2ccoc2nc2c(OC)c(O)ccc12,5,5,6,i,11,3,.,4,
CC(C)Cn1c(N)c(C(=O)CSc2nncs2)c(=O)n(C)c1=O,0,-4,.,.,.,-1,-7,.,
CCN1CCN(c2ccc(S(=O)(=O)N3CCCCC3)cc2NC(=O)c2sccc2C)CC1,0,2,.,i,-4,-10,-26,.,
CCCCOc1ccc(/C=C(\C#N)C(=O)NC2CC2)cc1,2,-1,.,i,1,-6,0,.,
Cc1ccc(C(NC(=O)N2CCOCC2)C(Cl)(Cl)Cl)cc1F (stereo not given),2,1,-7,.,-11,.,6,-20,
O=C1C(SCCO)=C(SCCO)C(=O)c2ccccc21,-78,-5,.,.,102*,-42,-194,.,
CCN(C(=O)c1c(OC)cccc1OC)c1nnc(-c2cccnc2)s1,0,2,-6,i,14,2,4,0,
Cc1ccc(/C=C/C(=O)NC(=S)Nc2ccccc2C(=O)NC2CCCCC2)cc1,-4,3,-4,i,2,-7,.,-1,
O=C(CSCc1ccccc1Cl)Nc1c[nH]c(=O)[nH]c1=O,5,6,-15,i,-14,10,-98,-8,
CC(NC(=O)c1ccccc1)C(=O)OCC(=O)N1c2ccccc2Sc2ccccc21 (stereo not given),0,6,6,i,-21,-12,-12,-11,
O=C(O)c1cccc(N/N=C(\N=Nc2ccccc2)c2ccccc2)c1,9,1,.,i,88*,-26,-7,.,
COCCCNCCOc1ccc(C(C)(C)c2ccccc2)cc1,1,1,-6,i,38,.,-3,2,
CCOc1cc(CNS(=O)(=O)c2cn(C)cn2)cc(OCC)c1OCC,-7,0,-5,i,21,-7,11,-9,
CCOC(=O)Cc1csc(NS(=O)(=O)c2ccccc2)n1,-2,0,-3,i,-2,-16,.,0,
CC(=O)Nc1ccc(NS(=O)(=O)c2cc(-c3n[nH]c(=O)c4ccccc34)ccc2C)cc1,4,6,-2,i,10,-5,-20,8,
CCCN(C)C[C@@H]1Oc2ncc(Br)cc2C(=O)N([C@@H](C)CO)C[C@H]1C,3,3,.,.,.,-5&1,-38,.,
CCOc1ccc2[nH]c(=O)c(CN(CCO)C(=O)c3ccc(Br)cc3)cc2c1,-2,-5,6,i,5,.,.,-1,
COc1cc(NCCCn2cnc3c(OCc4ccccc4)ncnc32)cc(OC)c1OC,3,3,.,.,.,-23,21,.,
O=C(Nc1ccc(SC(F)F)cc1)c1ccc2c(=O)n3c(nc2c1)CCC3,10,-24,.,.,-1,-23,-51,.,
Cc1cc(S(=O)(=O)c2ccc(Cl)cc2)nc(S(=O)(=O)c2ccc(Cl)cc2)c1C#N,-2,-10,.,.,.,-17,-154,.,

# 6 structures out of the list, sorted by heavy-atom count, rising:
SMILES,MT1-MMP act inh,MT1-MMP act inh RFP,PABP FP inh,Rce1 inhib,CSC inhib,UUG fidelity,Env fusion inh,eIF4H inh,others
CCCN(C)C[C@@H]1Oc2ncc(Br)cc2C(=O)N([C@@H](C)CO)C[C@H]1C,3,3,.,.,.,-5&1,-38,.,
CCOc1cc(CNS(=O)(=O)c2cn(C)cn2)cc(OCC)c1OCC,-7,0,-5,i,21,-7,11,-9,
O=C(Nc1ccc(SC(F)F)cc1)c1ccc2c(=O)n3c(nc2c1)CCC3,10,-24,.,.,-1,-23,-51,.,
CCOc1ccc2[nH]c(=O)c(CN(CCO)C(=O)c3ccc(Br)cc3)cc2c1,-2,-5,6,i,5,.,.,-1,
Cc1cc(S(=O)(=O)c2ccc(Cl)cc2)nc(S(=O)(=O)c2ccc(Cl)cc2)c1C#N,-2,-10,.,.,.,-17,-154,.,
COc1cc(NCCCn2cnc3c(OCc4ccccc4)ncnc32)cc(OC)c1OC,3,3,.,.,.,-23,21,.,

# Next part
SMILES,MT1-MMP act inh,MT1-MMP act inh RFP,PABP FP inh,Rce1 inhib,CSC inhib,UUG fidelity,Env fusion inh,eIF4H inh,others
O=C(/C=C/c1ccc(Br)cc1)N1CCN(Cc2ccccc2)CC1,3,-4,.,i,5,.,21,.,
O=C(N/N=C/c1ccccn1)c1cccc(NC(=O)c2ccc(Cl)cc2)c1,6,4,-11,i,6,-12,13,13,
CN(C)c1nc2c(c(=O)n(C)c(=O)n2C)n1CC(=O)c1cccs1,5,3,.,i,-4,.,8,.,
COC(=O)c1ccccc1S(=O)(=O)N1CCC(C(=O)OCc2cccc(OC)c2OC)CC1,2,1,.,i,-1,.,-3,.,
CCCc1cc(-c2n[nH]c(=S)n2CC)cs1,2,1,-8,i,-9,.,-11,-8,
CCOC(=O)[C@H]1[C@H]2COc3ccc(Cl)cc3[C@@H]2N2C(=O)c3ccc(Cl)cc3NC(=O)[C@@]12C,-21,-17,.,.,36,-8,-6,.,
COc1ccc(C(=O)COC(=O)c2ccc3c(c2)OCO3)c(OC)c1,4,4,.,.,-8,-1,.,.,
C(=N\N1CCOCC1)/c1ccsc1,-2,-1,0,i,-6,-9,6,-4,
O=C(CN1C(=O)S/C(=C/c2ccccn2)C1=O)N1CCOCC1,-2,3,13,i,12,-22,6,4,
CC(=O)Nc1ccc(NC(=O)COC(=O)Cc2c[nH]c3ccccc23)cc1,7,15,4,i,-10,-12,-5,0,

# Continued; it opens with the 4 that closed the last part.
SMILES,MT1-MMP act inh,MT1-MMP act inh RFP,PABP FP inh,Rce1 inhib,CSC inhib,UUG fidelity,Env fusion inh,eIF4H inh,others
COc1ccc(C(=O)COC(=O)c2ccc3c(c2)OCO3)c(OC)c1,4,4,.,.,-8,-1,.,.,
C(=N\N1CCOCC1)/c1ccsc1,-2,-1,0,i,-6,-9,6,-4,
O=C(CN1C(=O)S/C(=C/c2ccccn2)C1=O)N1CCOCC1,-2,3,13,i,12,-22,6,4,
CC(=O)Nc1ccc(NC(=O)COC(=O)Cc2c[nH]c3ccccc23)cc1,7,15,4,i,-10,-12,-5,0,
CCc1ccc(-n2cc(-c3ccc([N+](=O)[O-])cc3)[nH]c2=S)cc1,20,0,98,i,-4,.,20,3,eIF4H inh retest=19;PABP FP inh retest=4
COc1ccc(S(=O)(=O)Nc2cccc(Cl)c2)cc1OC,6,4,1,i,-9,-9,-68,-4,
Cc1cc(Cl)ccc1OCC(=O)NN1C(=O)C2C3C=CC(C3)C2C1=O (stereo not given),-1,2,4,i,0,.,35,2,
Cc1ccnn2cc3c(=O)n(C)c(=O)n(C)c3c12,.,.,-1,i,0,.,.,-3,
CNC(=O)CC1C(=O)N(c2ccc(F)cc2)C(=S)N1NC(=O)c1ccc(Br)cc1 (stereo not given),2,5,-10,i,-17,-18,-16,-9,
CCCN=C1N(CC)C[C@@H]2[C@@H]3C(=O)N(Cc4ccccc4)C(=O)[C@@H]3[C@](C)(C(=O)OC)N12,6,6,.,.,.,-4,5,.,
COCCN1C=C(C(=O)OC)C(c2cc(Br)c(OC)c(OC)c2)C(C(=O)OC)=C1,-1,3,-13,i,-3,7,.,-8,
O=C(COC(=O)c1ccco1)Nc1cccc(Br)c1,-1,-1,-11,i,.,-7,.,-7,
Cc1nonc1OCCN1CCN(c2ccc([N+](=O)[O-])cc2)CC1,7,-10,-2,i,2,.,0,-11,
Cc1nc(NC(C)C(=O)O)c2nc(C)oc2n1 (stereo not given),2,3,-8,i,-3,-18,6,-2,
CC1CCCCC1NC(=O)COCc1cc(-c2cccs2)on1 (stereo not given),-6,-3,2,i,-12,23,9,-9,
CCn1c(=O)c([N+](=O)[O-])c(NCC(O)c2ccccc2)c2ccccc21 (stereo not given),6,-1,-1,i,-2,.,.,-7,
COc1ccccc1NC(=O)c1c(N=Cc2c(O)ccc3ccccc23)cnn1C,-4,-16,-3,i,?,.,-32,-10,
CCN(CC)CCn1c2c(c(SCC(=O)Nc3ccc(C)c(F)c3)nc1=O)CCC2,2,-3,.,i,12,-20,2,.,
CC1CCCC(NC(=O)c2cc(S(=O)(=O)N3CCCCC3)c[nH]2)C1C (stereo not given),3,-9,.,.,.,-13,8,.,
CN(C)c1ccc(C2Nc3ccccc3C(=O)N2NS(=O)(=O)c2ccccc2)cc1 (stereo not given),-2,-4,9,i,-2,.,-3,-5,
CCCCCCCNC(=O)C1(CC2CC(c3cccc(Br)c3)=NO2)CCN(C(=O)CCCCCBr)CC1 (stereo not given),.,.,.,i,2,-8,0,.,
CCN(CC(=O)Nc1ccc2c(c1)OCCO2)C(=O)/C=C/c1ccc([N+](=O)[O-])cc1,3,4,.,.,.,-12,-7,.,
CCN1C[C@@H]2[C@@H]3C(=O)N(Cc4ccccc4)C(=O)[C@@H]3[C@](CC)(C1=O)N2C(=O)c1ccc(C(F)(F)F)cc1,1,2,.,.,.,-4,22,.,
Cc1c(Cl)c([N+](=O)[O-])nn1CC(=O)NC12CC3CC(CC(C3)C1)C2,5,1,4,i,.,-7,.,12,
COc1cc(/C=C2/SC(=O)NC2=O)ccc1OC(=O)c1ccco1,-10,-6,-2,i,-16,-6,-25,-4,
CCCN1CCN(C(=S)Nc2ccc([N+](=O)[O-])cc2)CC1,0,7,-11,i,13,-14,7,-4,
NS(=O)(=O)c1ccc(NC(=O)COC(=O)COc2ccccc2)cc1,-4,-1,0,i,-1,.,17,3,

# From PubChem BioAssay
